From PubChem
NPYLR7 agonist: agonists of mosquito NPYLR7 receptor, primary screen, cell-based, Aedes aegypti, calcium fluorescence, mosquito biting behavior. Aedes aegypti neuropeptide Y-like receptor 7 (NPYLR7). HEK293T NPYLR7/Galpha15, GCaMP6s calcium fluorescence. activation, % at 10 µM. 0.15% of 270,000 active; in the data active = activation above about 40%;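 also: 0% = vehicle and 100% = reference agonist at the receptor; some compounds past the cut are filed as inactive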
NPYLR7 agonist max-min: further read-out of NPYLR7 agonist, marked with its call; activation, %; measured here: Max-Min RFU normalised activation; some inactives read as strong as hits;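 span of the calcium signal over five minutes; 0% = vehicle and 100% = native peptide agonist; compound fluorescence can raise it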
An asterisk follows results filed as active; & = joins results of further samples. An excerpt. The share of hits here may be higher or lower than overall.

SMILES | NPYLR7 agonist | NPYLR7 agonist max-min
CC(C)c1nc(CCNC(=O)N2CCCCC2C)cs1 (stereo not drawn) | -4 | -4
CN(Cc1ccc2c(c1)OCO2)c1nc(-c2cccnc2)nc2ccccc12 | 0 | 39
O=C(NCCNc1ccc(C(F)(F)F)cc1[N+](=O)[O-])C1CCC1 | 14 | 10
C=CCN(CC1CC(c2ccccc2C)=NO1)C(=O)C1CCCC1 (stereo not drawn) | -2 | 4
CC(=O)N[C@H](C)C(=O)N(C)CC1(CO)CCC1 | 5 | -7
O=C(Nc1cccs1)N1CCn2cccc2C1c1ccncc1 (stereo not drawn) | 14 | 6
O=C(Nc1ccc(NS(=O)(=O)c2cccc(C(F)(F)F)c2)cc1)c1cnc(Cl)nc1C(F)(F)F | -8 | -14
O=C1NC2(CCN(Cc3cccc([N+](=O)[O-])c3)CC2)Nc2ccc(Br)cc21 | 11 | 27
NC(=O)c1nn2c(c1Br)NC(c1ccccc1)CC2C(F)(F)F (stereo not drawn) | -5 | -15
CC(C)(C)c1cc2nc(-c3ccccc3Cl)cc(C(=O)NCCCN3CCOCC3)n2n1 | 0 | 5
CC1N=NC(=NNC(=O)c2cc3c(F)cccc3s2)NC1=O (stereo not drawn) | 16 | 9
CC(C)=NNC(=O)CC(=O)NN=C(C)C | 1 | 57
CN(C)CCCN(C(=O)c1ccc([N+](=O)[O-])cc1)c1nc2ccc(Br)cc2s1 | -2 | -3
COc1ccc(-c2cnc(C(O)c3ccc(C(C)(C)C)cc3)[nH]2)cc1 (stereo not drawn) | 2 | 0
c1ccc2c3c([nH]c2c1)NCCC3 | 2 | 1
Cc1cc(Br)c(NC(=O)Cn2cnc3c(cnn3C)c2=O)c(Br)c1 | -1 | 7
O=C(c1nc2ccccc2[nH]c1=O)N1CC[C@@H](c2ccc3ccccc3c2)[C@H](O)C1 | 1 | -4
COc1ccccc1N1CCN(C(=O)c2cc(-c3ccccc3Cl)nc3cc(-c4ccccc4)nn23)CC1 | 20 | 17
Cn1c(-c2cccnc2)cc2cnc(Nc3ccc(F)cc3)cc21 | -2 | 8
Cc1cccc(COC(CN2CCN(C(=O)Nc3cccc(C#N)c3)CC2)c2ccc(Cl)cc2)c1 (stereo not drawn) | -3 | -3
Cc1[nH]nc(-c2ccc(O)cc2O)c1Oc1ccc(C(C)C)cc1 | 3 | 11
O=C(NC1CCCCCC1)c1cccc(S(=O)(=O)NC2CC2)c1 | -1 | 7
CCNc1oc(-c2ccc(COc3ccc(C)cc3)o2)nc1C#N | -1 | 16
Cc1cc(C)cc(NC(=O)CSc2c(C)[nH]c3ccccc23)c1 | 0 | -2
CCOc1ccc(S(=O)(=O)Oc2ccc(C)cc2)cc1OCC | 5 | 3

Fetched by structure from above, 4 records:
SMILES | NPYLR7 agonist | NPYLR7 agonist max-min
CCOc1ccc(S(=O)(=O)Oc2ccc(C)cc2)cc1OCC | 5 | 3
O=C(NC1CCCCCC1)c1cccc(S(=O)(=O)NC2CC2)c1 | -1 | 7
CN(Cc1ccc2c(c1)OCO2)c1nc(-c2cccnc2)nc2ccccc12 | 0 | 39
CC(=O)N[C@H](C)C(=O)N(C)CC1(CO)CCC1 | 5 | -7

(continued)
SMILES | NPYLR7 agonist | NPYLR7 agonist max-min
COCCCNS(=O)(=O)C1CON(C)C1c1ccc(C(C)(C)C)cc1 (stereo not drawn) | 3 | 2
Cc1sc2nc[nH]c(=S)c2c1C | -7 | -17
COc1ccc(-c2nc(Cn3cnc(C#N)n3)no2)cc1 | 11 | 3
Cn1c(=NN=C2CCc3ccccc32)sc2ccccc21 | -1 | -6
CC(NC(=O)N1CCN(CC(=O)Nc2ccc(F)cc2)CC1)c1ccc(F)c(F)c1 (stereo not drawn) | -4 | -6
Cc1nc(-c2ccc(-n3ccnc3-c3ccnc(C(C)C)n3)cc2)n[nH]1 | 38 | 35
COc1ccc(CCOc2nc(-c3ccco3)n(-c3cccc(NC(=O)c4cccs4)c3)n2)cc1 | 1 | 9
N#Cc1c(Cl)cccc1Oc1cccc(C(=O)O)c1 | 3 | 0
COc1cccc(CNC2CCc3c(sc4ncn(Cc5cccc(F)c5)c(=O)c34)C2)c1OC (stereo not drawn) | 26 | 22
CCN1CCN(S(=O)(=O)c2ccc(OC)c(N3CCN(C(=O)c4ccc(Cl)cc4)CC3)c2)CC1 | 21 | 10
COCCn1c(C)cc(O)c(C(c2cccc(Cl)c2)N2CCC(C)CC2)c1=O (stereo not drawn) | 5 | 2
CCCc1nnsc1C(=O)N1CCC(Cc2cccc(C(N)=O)c2)C1 (stereo not drawn) | -3 | -3
CCOc1cc(/C=N\Nc2nc(N3CCCC3)nc(N3CCCC3)n2)ccc1OCC(=O)O | -4 | -8
COCCNC(=O)c1cc(-c2ccc(OC)cc2)n(-c2ccccc2F)c1C | -6 | -5
CC(=O)c1ccc(N2C(=O)C3C4C=CC(C4)C3C2=O)cc1 (stereo not drawn) | -6&-2 | -12&-7
Cc1ccc(C2(O)CCN(C(=O)c3ccc(Cn4ccnc4)o3)CC2)nc1 | -3 | -4
COc1cccc(C2C(C(=O)OC3CCCCC3)=C(C)NC3=C2C(=O)CC(c2ccccc2)C3)c1 (stereo not drawn) | -4 | -6
CCOC(=O)c1ccccc1NC(=O)Cn1cnc2c(nnn2-c2ccc(C)cc2)c1=O | 2 | 6
CN(C)CCCN(CCC#N)C(=O)Nc1ccncc1 | -4 | -6
CCNC(=O)CN(CC)Cc1nc2sc(C(C)=O)c(C)c2c(=O)[nH]1 | 7 | 12
CCOc1ccc(/C=C/c2nc3ccc(Br)cc3c(=O)o2)cc1 | -12 | -18
O=c1/c(=C/c2ccc(-c3ccc([N+](=O)[O-])cc3)o2)sc2nc3cc(Br)cnc3n12 | -8 | -16
Cc1ccc(-c2ccsc2C(=O)NC2=NCCS2)cc1 | -17 | -19
Cc1cc(NC(=O)c2ccccn2)c2cc(Br)ccc2n1 | -4 | -5
O=C(c1ccccc1)c1ccccc1NC(=O)C1CCCC1 | 11 | 12

Next section, starting with the last 3 of the part before.
SMILES | NPYLR7 agonist | NPYLR7 agonist max-min
Cc1ccc(-c2ccsc2C(=O)NC2=NCCS2)cc1 | -17 | -19
Cc1cc(NC(=O)c2ccccn2)c2cc(Br)ccc2n1 | -4 | -5
O=C(c1ccccc1)c1ccccc1NC(=O)C1CCCC1 | 11 | 12
CC(=O)N1CCC2(CC1)OC(=O)C(C)=C2C(=O)NC1CCCCCC1 | 5 | 2
CCOC(=O)c1nc2cc(Cl)c(Cl)cc2nc1N1CCN(C(=O)CCSC)CC1 | 3 | 0
OC1(c2cccc(C(F)(F)F)c2)CCN(Cc2ccncc2)CC1 | 19 | 14
Cc1noc(C)c1CNC(=O)C(c1cccnc1)N1CCCC1 (stereo not drawn) | -7 | -17
CC(Cc1ccsc1)Nc1nc2nonc2nc1N(C)C (stereo not drawn) | 14 | 16
Cc1noc(C)c1CC1(C)C(=O)Nc2ccc(-c3cccc(C(F)(F)F)c3)cc21 (stereo not drawn) | 1 | 7
CNC(=O)c1cccc(-c2ccc3nnc(-c4ccc(OCCCN(C)C)cc4)n3c2)c1 | 9 | -1
Cc1nc(NCCOc2c(C)cccc2Cl)c2cnn(C)c2n1 | 23 | 10
CCCS(=O)(=O)N1CCN=C1SCc1cc(C)ccc1C | 9 | 9
CCC1CCC2(CC1)NN=C(c1ccc(C)cc1)S2 (stereo not drawn) | 1 | 3
Cc1nc(CN2CCN(c3ncnc4ccccc34)CC2)c2ccccn12 | 0 | 2
O=C(COc1cccc2ccccc12)NN=Cc1ccccc1[N+](=O)[O-] | 3 | -2
C=CCn1c(=NC(=O)c2coc3ccccc3c2=O)sc2cc(OC)c(OC)cc21 | 4 | 2
CCc1nc2c(OCC(=O)c3ccc(Cl)cc3Cl)cccn2c1N(C=O)Cc1ccccc1 | -4 | -8
Fc1ccc(Nc2nn(CN3CCCCC3)c(=S)s2)cc1 | 1 | -2
Cc1ccc2c(c1)CCCN2C(=O)/C=C/c1ccco1 | 17 | 15
Cc1cc(NC(=O)CNCCN2CCCOC2=O)ccc1Cl | 0 | -3
Cn1c(=NN=CC2=C(N3CCOCC3)C(=Cc3ccc([N+](=O)[O-])cc3)CC2)sc2ccccc21 | 1 | -2
O=C(CSc1nnc(-c2cccs2)n1C1CC1)NCC1CCCO1 (stereo not drawn) | 9 | 8
COCCN(CC(O)Cn1c2ccccc2c2ccccc21)S(C)(=O)=O (stereo not drawn) | -3 | -6
O=C(NCc1nnnn1-c1ccc(Cl)cc1)c1ccc(Br)o1 | 4 | 1
COc1ccc(C(=O)O)cc1N1C(=O)C2CC=CCC2C1=O (stereo not drawn) | 15 | 14
CCOC(=O)CN1C(=O)C2CC=C(Cl)CC2C1=O (stereo not drawn) | 15 | 13
CC(C)(C)c1cc(Oc2cccc(Cl)c2)nc(SCc2cccc(Cl)c2)n1 | 2 | 12
CC1CCc2c(C(=O)O)csc2C1 (stereo not drawn) | -4 | -4

Filtered by structure, the entries above containing a COOH group (4)
SMILES | NPYLR7 agonist | NPYLR7 agonist max-min
N#Cc1c(Cl)cccc1Oc1cccc(C(=O)O)c1 | 3 | 0
CCOc1cc(/C=N\Nc2nc(N3CCCC3)nc(N3CCCC3)n2)ccc1OCC(=O)O | -4 | -8
COc1ccc(C(=O)O)cc1N1C(=O)C2CC=CCC2C1=O (stereo not drawn) | 15 | 14
CC1CCc2c(C(=O)O)csc2C1 (stereo not drawn) | -4 | -4

Going on with the list:
SMILES | NPYLR7 agonist | NPYLR7 agonist max-min
CCc1nc2ccc(C(=O)N3CCN(C)CC3)cn2c1N(C)Cc1cc2ccccc2s1 | 8 | 13
Cc1c(NC(=S)NC(=O)C(C)(C)C)c(=O)n(-c2ccccc2)n1C | 7 | 8
O=C(c1nc2sccn2c1CN1CCCC1c1ccc(F)cc1)N1CCCCCCC1 (stereo not drawn) | 6 | 3
Cc1cc(C)c(S(=O)(=O)NCCCC(=O)O)cc1N(C)S(=O)(=O)c1ccc(F)cc1 | -11 | -18
COc1ncc(CN2CCc3onc(-c4cccc5ccccc45)c3C2)cn1 | 4 | -2
CCOC(=O)c1cc(-c2ccccc2)nc2[nH]c(=O)c3ccccc3c12 | 5 | 2
CCOC(=O)c1sc2nc(C)nc(SCC(=O)OC)c2c1C | 0 | 1
CCCOC(=O)C1=C(C)NC2=C(C(=O)CC(c3ccccc3)C2)C1c1cccc(O)c1 (stereo not drawn) | 7 | 4
O=C(NC1CCCCC1C(F)(F)F)c1ccc(F)cc1Br (stereo not drawn) | 2 | 0
CCN(C(C)=O)C1CCN(Cc2cc3n(n2)CCNC3)C1 (stereo not drawn) | 16 | 16
COCCN(Cc1ccc(OC)cc1)c1c(C)nc2ccc(C(=O)Nc3ccc(NC(C)=O)cc3)cn12 | -3 | -8
O=C1c2ccc(-c3nc4ccccc4c(=O)o3)cc2C(=O)N1c1nc2ccccc2s1 | -8 | -12
Cc1c(CNC2CCN(Cc3cccc(C(F)(F)F)c3)CC2)cc(C#N)n1C | -2 | 0
COc1cc(Cl)cc(C(=O)N2CCCC(N(C)C)CC2)c1 (stereo not drawn) | 7 | 3
O=C(CC1CSc2nccc(=O)n21)NCc1ccco1 (stereo not drawn) | -2 | -2
CN1CCN(CC(NCc2cccc(O)c2)c2ccccc2)CC1 (stereo not drawn) | 6 | 3
O=S(=O)(c1cccc(C(F)(F)F)c1)N1CCN(C(c2ccc(F)cc2)c2ccc(F)cc2)CC1 | 3 | 0
O=C(Cc1ccccc1)Oc1coc(CSc2ncccn2)cc1=O | -13 | -11
CCC(C)N=C1SCC(C23CC4CC(CC(C4)C2)C3)=NN1C (stereo not drawn) | -1 | 5
NNc1nc(-c2ccccc2)c2cc(Cl)ccc2n1 | -3 | -9
Cc1nc(SCc2ccc(C(=O)O)cc2)nc(N2CCN(Cc3ccccc3)CC2)c1C | 8 | 9
CC1=CC(=NNc2nc3ccccc3s2)CC1 | 4 | 3
COc1ccc2c(c1OC)C(=O)OC2Nc1nc(-c2ccccc2)cs1 (stereo not drawn) | 6 | 5
CCOC(=O)C1CCN(C(=O)C2COC3(CCN(C(=O)c4ccc(OC)cc4)CC3)N2C(=O)c2ccc(OC)cc2)CC1 (stereo not drawn) | 4 | 18
O=S(=O)(NC[C@@H]1[C@H](O)[C@@H]2O[C@H]1c1ccccc12)c1ccccc1 | 17 | 24

A run of entries of the results above, for reference:
SMILES | NPYLR7 agonist | NPYLR7 agonist max-min
CC1=CC(=NNc2nc3ccccc3s2)CC1 | 4 | 3
COc1ccc2c(c1OC)C(=O)OC2Nc1nc(-c2ccccc2)cs1 (stereo not drawn) | 6 | 5
CCOC(=O)C1CCN(C(=O)C2COC3(CCN(C(=O)c4ccc(OC)cc4)CC3)N2C(=O)c2ccc(OC)cc2)CC1 (stereo not drawn) | 4 | 18
O=S(=O)(NC[C@@H]1[C@H](O)[C@@H]2O[C@H]1c1ccccc12)c1ccccc1 | 17 | 24

Following part:
SMILES | NPYLR7 agonist | NPYLR7 agonist max-min
Cc1cc(F)ccc1NC(=O)CCNC(=O)c1cnn2c1CCCC2 | 6 | -2
CC(C)(C)c1ccc(-c2ccnc(N3CCN(S(=O)(=O)c4cccc(F)c4)CC3)n2)cc1 | 9 | 5
Cc1cnc(N(C)CCCc2cnn(C)c2)nc1N(C)C | -2 | 7
CCC(C)NC(=O)CC1CSc2nc(C)cc(=O)n21 (stereo not drawn) | -1 | -2
CC12CCC(C(=O)O)(CC1OC(=O)C(Cl)(Cl)Cl)C2(C)C (stereo not drawn) | -2 | -3
O=C(NNC(=O)C1CC1c1ccccc1F)c1ccccn1 (stereo not drawn) | 9 | 5
Clc1ccc(-c2cc3c(nn2)Nc2ccccc2N3)cc1 | -2 | -2
Cc1cc(OCC(=O)NNC(=O)c2ccc(C(C)(C)C)cc2)cc(C)c1Cl | 1 | 2
O=C(NCc1ccccc1)N1CCN(c2ccc3nnc(C4CC4)n3n2)CC1 | 0 | 6
COCCn1cc(C(=O)N2CCN(C(=O)CC3CCCC3)CC2)c2nn(-c3ccccc3)c(=O)c-2c1 | 1 | -2
CC(=O)c1ccc(N=Cc2nc(-c3ccc([N+](=O)[O-])cc3)oc2O)cc1 | -5 | -8
